Screens deposited in PubChem by ICCB-Longwood Screening Facility, Harvard Medical School.
Ba CapD inh = blocks the Bacillus anthracis CapD enzyme; purified CapD enzyme, fluorescence intensity read-out; hits give low values; some hits fall short of the stated cut; z-score (no concentration beside the values); actives 0.23% (n = 140,000);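 active = z-score under -4 in either of two replicates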;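 also: stock transfer was 100 nL into about 40 µL; score is relative to mean and spread of the plate; one replicate is shown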
AID504770 = E. coli YBA685 growth inhibition, screen for V. cholerae RctB inhibitors; z-score (test concentration not listed); E. coli YBA685 rctB-dependent plasmid, OD600 growth, 3 h; hits give low values; actives 0.27% (n = 130,000);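 active = z-score under -2 on both plates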;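 also: wells of about 30 µL received 100 nL stock; score is relative to mean and SD of the test wells; the first replicate is given; strong numbers were not always called active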
Numbers without * were called inactive; x = not tested or not shown. The list is partial. The share of hits here may be higher or lower than overall.

SMILES | Ba CapD inh | AID504770
COC(=O)c1cc(Cc2ccc(N)c(C(=O)OC)c2)ccc1N | 67.9 | -0.1
c1ccc(-c2ccc(-c3cn4ccccc4n3)cc2)cc1 | -0.825 | -0.5
FC1(F)C2CC3CC(C2)CC1C3 | x | -0.1
COc1cc(CNC(=O)c2ccc(-n3cccc3)cc2)cc(OC)c1 | -0.045 | x
CN(C)c1ccc(CN2CCC(NC(=O)c3ccc(CSc4ccccn4)o3)C2)c2ccccc12 (centres undefined) | 25.2 | x
Cc1ccc(S(=O)(=O)c2ccc(NC(=O)c3ccc(F)cc3)cc2)cc1 | -0.005 | x
COc1ccc(/C=C2\SC(=O)N(CCNC(=O)/C=C/c3ccco3)C2=O)cc1 | x | 0.55
Cc1c(C(c2cc(C(C)(C)C)c(O)c(C(C)(C)C)c2)c2c(C)n(C)n(-c3ccccc3)c2=O)c(=O)n(-c2ccccc2)n1C | 6.1 | x
O=S(=O)(CC(c1ccccc1)N1CCCCC1)c1ccc(Cl)cc1 (centres undefined) | -1.14 | 1.85
CN(CC(=O)NCc1ccco1)C(=O)c1ccc(-c2ccc(Cl)cc2)s1 | x | 2
CC1CC(N(C(=O)c2ccc(Cl)cc2)c2ccccc2)c2ccccc2N1C(=O)c1ccc(Cl)cc1 (centres undefined) | -0.495 | x
OC1CCN(C(=S)NCCc2ccccc2)CC1 | -0.05 | x
CCCC12CN(C(=O)CC)CC(CCC)(CN(C(=O)CC)C1)C2=O | -1 | -0.25
COc1ccccc1CCOC(=O)NNC(=O)c1cc(C)[nH]n1 | 0.635 | x
COc1cccc(N(C(=O)c2ccccc2)C2C=CS(=O)(=O)C2)c1 (centres undefined) | -0.425 | -0.45
CC(=O)Nc1nc2c(Cl)cccc2s1 | 0.38 | 0.3
CN1C(=O)C(CC(=O)O)c2ccccc21 (centres undefined) | x | -0.6
C[N+]1(C)CCC[C@H]1C(=O)[O-] | 0.15 | x
Cn1/c(=N/N=C\c2ccccc2)sc2ccccc21 | -1.08 | 1.95
Cc1nn(C(C)(C)C)c(C)c1/C=N/O | 0.68 | x
C=CCn1c(SCC(=O)N2CCCCC2)nc2scc(-c3ccc(C)o3)c2c1=O | x | -0.25
CCCn1c(CC)nc2ccccc21 | 0.69 | -0.5
CCC(=O)NCCSc1c(-c2ccccc2)[nH]c2ccccc12 | 108 | -1.55
Cc1onc(-c2c(Cl)cccc2Cl)c1C(=O)Nc1ccc(N2CCCCC2)cc1 | -0.18 | 0.25
Cc1sc2ncnc(SCCC(=O)O)c2c1C | x | 0
CCOC(=O)C1CCN(C(=O)CN2C(=O)C(CC)Oc3ccccc32)CC1 (centres undefined) | -0.09 | -0.65
O=C(O)c1c[nH]c2c(F)cccc2c1=O | 1.91 | 1.5
Cc1ccc(CN(Cc2ccco2)S(=O)(=O)c2ccc(S(=O)(=O)NC3CC3)cc2)o1 | x | 0.15
CC(NC(=O)Cn1nc(-c2ccccc2)ccc1=O)c1ccccc1 (centres undefined) | 0.795 | -1.15
CC(=O)N1c2ccccc2NC2=C(C(=O)CC(C)(C)C2)C1c1ccc(-c2ccc([N+](=O)[O-])cc2C)o1 (centres undefined) | -0.205 | x
Cc1cc2occ(CC(=O)Oc3ccc(-c4nnco4)cc3)c2cc1C | x | 2
COc1ccc(-n2cc(C(=O)NC3CCCc4ccccc43)nn2)cc1 (centres undefined) | -0.24 | 0.8
CC(C)n1c(=O)[nH]c2cc(C(=O)Nc3nccs3)ccc21 | x | 0.5
COC(=O)CSc1sc(=O)sc1SC | -0.575 | -0.7
COc1ccc(SCC(=O)c2cc(C)n(Cc3ccco3)c2C)cc1 | x | 1.05
CC(NCc1cccnc1)C12CC3CC(CC(C3)C1)C2 (centres undefined) | -0.45 | -0.3
CNc1nc(N2CCc3ccccc32)ncc1F | 1.08 | 2.05
COc1ccc(-c2nc(CSCC(=O)NC3CC3)c(C)o2)cc1OC | 3.96 | -0.8
Cc1cnc(C(=O)OCC(=O)c2csc(N3CCCCC3)n2)cn1 | x | 1.8
Cc1ccc(S(=O)(=O)NCCNc2ccc(C(F)(F)F)cc2[N+](=O)[O-])cc1 | -0.29 | x
CCCNC(=O)c1cccc(COc2ccccc2OC)c1 | 0.8 | 0.75
Cc1nnc(SC(C(=O)N2CCCC2)c2ccccc2)n1N (centres undefined) | x | 2.8
CCCN(CCC)C1=C(C(=O)c2ccccc2)N(CC(N)=O)S(=O)(=O)c2ccccc21 | 0.26 | 0.65
Cc1ccc(-n2c(SCC(=O)NC(C)(C#N)C(C)C)nnc2-c2ccccc2)cc1C (centres undefined) | x | -1
CCn1cc(C(=O)NCCC2=CCCCC2)c(=O)c2cc(S(=O)(=O)N(C)C)ccc21 | -0.23 | -0.6
Cc1cccc(C(=O)Oc2ccc3oc(=O)sc3c2)c1 | -0.81 | 0.9
O=C(CN1C(=O)C2CC=CCC2C1=O)NCc1cccc(C(F)(F)F)c1 (centres undefined) | x | -0.95
CCN(CC)c1ccc(C=C2C(=O)N(C)C(=O)N(C)C2=O)o1 | -0.765 | -0.45
CCSC1=C(C#N)C(c2cccc(Cl)c2Cl)C2=C(CCCC2=O)N1 (centres undefined) | 0.11 | 1.9
O=C(c1ccc2ncsc2c1)N1CCN(c2ccccc2)CC1 | x | 0.45
(continued)
SMILES | Ba CapD inh | AID504770
Oc1ccc(-c2ccccc2)cc1O | 1.03 | 0.75
Cc1ccc(C(=O)N2CCCCC2)cc1NC(=O)C1=CSCCO1 | 0.185 | -0.2
COc1ccc(OC)c(S(=O)(=O)Nc2ccc(C#N)cc2)c1 | -0.315 | x
CC(C)(C)C(=O)OCCN1C(=O)C2C3c4ccccc4C(c4ccccc43)C2C1=O (centres undefined) | -0.025 | x
CC1(C)CC(=O)C(C=NCCN2CCNCC2)=C(O)C1 | -0.785 | -0.8
CC1CCCN(C(=O)CSc2nc3ccccc3o2)C1 (centres undefined) | 0.045 | 1.15
Nc1ccc(-c2nnc(-c3ccc(N)cc3)o2)cc1 | 63 | -0.5
CCC1CN(C(=O)N2CCC(C(=O)N3CCCCC3)CC2)c2ccccc2O1 (centres undefined) | -0.065 | -0.95
CC1C/C(=N\O)c2ccccc21 (centres undefined) | 0.23 | -0.45
CCS(=O)c1nc2c(Br)cccc2[nH]1 (centres undefined) | 0.28 | -0.65
CS(=O)(=O)Nc1ccc(C(=O)CSc2nnc3n2CCCCC3)cc1 | x | -0.1
Cc1ccc2nc3c(c(C(=O)O)c2c1)CC(C(C)(C)C)CC3 (centres undefined) | -0.09 | -0.2
CCNCc1nc2ccccc2c(=O)[nH]1 | x | -1.9
O=C1CC(c2cccc(C(F)(F)F)c2)c2ccc3ccccc3c2N1 (centres undefined) | -0.94 | x
Nc1c(C(=O)c2ccccc2)no[n+]1[O-] | -0.52 | -1.25
CC(=O)NCCNCc1ccc(OCc2csc(C)n2)cc1 | x | 0.1
COc1ccccc1Oc1ccc2c(c1)C(=O)N(c1ccccc1OC)C2=O | 0.285 | x
CC(C)(C)c1ccc(S(=O)(=O)NCc2ccc(C(=O)N3CCN(C(=O)c4ccco4)CC3)cc2)cc1 | -0.135 | -0.7
CC(C)C12CN3CCN(CC(C3)C1=O)C2 | 0.745 | 0.1
CCc1ccc(NC(=O)Cc2coc3ccc(C(C)C)cc23)cc1 | -0.375 | 0.25
COc1ccc(C(=O)OCc2nnc(-c3ccccc3)o2)cc1S(=O)(=O)N1CCCCC1C (centres undefined) | x | -0.6
CCc1ccc(-c2cc(C)no2)cc1S(=O)(=O)N1CC(C)Sc2ccccc21 (centres undefined) | -0.43 | 0.35
COCC(=O)Nc1cc(-c2cn3cccnc3n2)ccc1OC | 38.1 | 1.05
CCOc1nc(-c2ccccc2)nc(Cl)c1N | 0.4 | 0
CN=Cc1ccccc1Br | x | -0.2
O=C(NNC(=O)c1sccc1-n1cccc1)Nc1cccc(Cl)c1 | -0.575 | x
NC(=O)CSc1nccn1Cc1ccccc1 | x | -0.75
COc1cc(C2Nc3cc(C)c(C)cc3NC3=C2C(=O)CC(C)(C)C3)cc(Br)c1OC (centres undefined) | -1.23 | x
CCOC(=O)c1ccc(NC(=O)N2CCC(CN3CCCCCC3)CC2)cc1 | -1.43 | -1.1
Cc1ccc(S(=O)(=O)N(C)c2ccc(C(=O)N3CCCCC3)cc2)cc1 | 0.565 | 0
Cc1cccc(C)c1OCCNC(=O)c1ccc2ccccc2n1 | -1.02 | -1.3
Cc1nn(CC(=O)NCC2CCCO2)c(=O)c2cc3occc3n12 (centres undefined) | 0.5 | 0.6
CCOc1ccc(N2C(=O)C(N3C(=O)c4ccccc4C3=O)C2c2ccc(F)cc2)cc1 (centres undefined) | 0.08 | x
Oc1ccccc1CN1CCCN(Cc2ccccc2O)C1 | -0.56 | -0.5
N#CCn1c(COC(=O)c2cccs2)nc2ccccc2c1=O | x | 0.25
Cc1c(C(=O)N2CCc3ccccc32)sc2nc3n(c(=O)c12)CCC3 | x | -0.3
COCCn1c(C)nc2c(c1=O)c1nc3ccccc3nc1n2-c1ccc(Cl)c(Cl)c1 | x | -0.3
CCOC(=O)c1c(C)n(CC)c2cc(Br)c(O)cc12 | x | 2.05
Cc1snnc1C(=O)Oc1ccccc1-c1nnco1 | 3.52 | 0.6
O=S(=O)(c1ccc2nsnc2c1)N1CCCCC1 | x | -0.15
COc1ccc(Oc2ccc(C(F)(F)F)cc2N)cc1 | 0.41 | x
CC(=O)N1CCc2cc(NC(=O)CSc3nnc4ccccn34)ccc21 | x | 0.65
COc1ccc(C2Nc3ccccc3C(=O)N2c2ccccc2)cc1COc1ccccn1 (centres undefined) | 3.23 | x
CC(C)CNC(=O)CSc1ncnc2ccccc12 | x | -0.75
O=C(NCC1CCCO1)C1c2ccccc2Oc2ccccc21 (centres undefined) | -0.33 | -1.95
CCOC(=O)c1c(C)noc1/C(C)=N/OC(=O)Nc1cccc(C(F)(F)F)c1 | 0.205 | 0
CN(C)c1cc(N=C2CCCN2c2ccccc2)c2ccccc2n1 | -0.87 | -0.2
C[N+]1(CC[N+]2(C)CCCCC2)CCCCC1 | -0.035 | -0.9
CN(C)c1nnc2c(Cl)cc(C(F)(F)F)cn12 | -0.185 | 2.05
COc1ccc(C(=O)COC(=O)c2ccc(NC(C)=O)cc2)c(OC)c1 | x | -0.2
(cont.)
SMILES | Ba CapD inh | AID504770
COCCOC(=O)C1=C(C)NC(C)=C(C(=O)OCCOC)C1c1ccc(-c2cccc(Cl)c2)o1 | 6.11 | x
Clc1ncn(CCOc2ccccc2)c1Cl | 0.25 | 0.75
COc1ccc(Cc2nc(C(C)(C)C)cs2)cc1 | -0.275 | x
N#CC1(C#N)C(c2cccnc2)C(C(=O)c2ccccc2)N2c3ncccc3C=CC21 (centres undefined) | 0.385 | x
COC(=O)C1=C(C)Nc2nnnn2C1c1ccccc1 (centres undefined) | -0.86 | x
Cc1nn(-c2ccccc2)c2[nH]c(C(F)(F)F)cc(=O)c12 | 21.4 | 0.85
CC(C)NC(=O)CN1CCN(c2nc(Cc3ccc(Cl)cc3Cl)nc3c2nnn3C)CC1 | -0.165 | 2.25
Cc1nc2cc(Cl)ccc2n1-c1ccccc1 | 0.395 | -0.85
O=C(O)c1oc2ccccc2c1-n1cccc1 | 0.19 | -0.5
CSCCC(NC(=O)c1cccnc1SC)C(=O)O (centres undefined) | -0.385 | x
NC(=O)c1ccc(NC(=O)COC(=O)Cc2ccc(-c3ccccc3)cc2)cc1 | -0.725 | -0.7
NNc1ccn(C2OC(CO)C(O)C2O)c(=O)n1 (centres undefined) | 0.07 | -1.4
COc1ccccc1N1CCN(S(=O)(=O)c2ccc(F)c(C(=O)Nc3cc(C)ccc3C)c2)CC1 | -0.17 | x
COc1ccc(C)cc1S(=O)(=O)NNc1nc(C)cc(C)n1 | x | -0.25
COC(=O)C1c2ccccc2-c2ccccc21 | -0.045 | 0.1
CC1CCc2c(oc3c2cc(NS(=O)(=O)c2ccc(Cl)cc2)c2ccccc23)C1 (centres undefined) | -0.295 | x
CC(Oc1ccccc1Cl)C(=O)N1CCCc2ccccc21 (centres undefined) | x | -0.4
CN(CCO)Cc1cc(N2CCN(C(=O)c3ccco3)CC2)c2c3c(onc13)-c1ccccc1C2=O | -0.83 | 3.5
COc1ccc(COn2c(=O)c(C)[n+]([O-])c3ccccc32)cc1OC | -0.08 | 0.05
Cc1ccc(Cn2c(=O)n(CCC(=O)N3CCc4ccccc4C3)c(=O)c3ccccc32)cc1 | 0.27 | -0.55

Molecules above with fluorine (13):
SMILES | Ba CapD inh | AID504770
FC1(F)C2CC3CC(C2)CC1C3 | x | -0.1
Cc1ccc(S(=O)(=O)c2ccc(NC(=O)c3ccc(F)cc3)cc2)cc1 | -0.005 | x
O=C(O)c1c[nH]c2c(F)cccc2c1=O | 1.91 | 1.5
CNc1nc(N2CCc3ccccc32)ncc1F | 1.08 | 2.05
Cc1ccc(S(=O)(=O)NCCNc2ccc(C(F)(F)F)cc2[N+](=O)[O-])cc1 | -0.29 | x
O=C(CN1C(=O)C2CC=CCC2C1=O)NCc1cccc(C(F)(F)F)c1 (centres undefined) | x | -0.95
O=C1CC(c2cccc(C(F)(F)F)c2)c2ccc3ccccc3c2N1 (centres undefined) | -0.94 | x
CCOc1ccc(N2C(=O)C(N3C(=O)c4ccccc4C3=O)C2c2ccc(F)cc2)cc1 (centres undefined) | 0.08 | x
COc1ccc(Oc2ccc(C(F)(F)F)cc2N)cc1 | 0.41 | x
CCOC(=O)c1c(C)noc1/C(C)=N/OC(=O)Nc1cccc(C(F)(F)F)c1 | 0.205 | 0
CN(C)c1nnc2c(Cl)cc(C(F)(F)F)cn12 | -0.185 | 2.05
Cc1nn(-c2ccccc2)c2[nH]c(C(F)(F)F)cc(=O)c12 | 21.4 | 0.85
COc1ccccc1N1CCN(S(=O)(=O)c2ccc(F)c(C(=O)Nc3cc(C)ccc3C)c2)CC1 | -0.17 | x

Whole records as entered above.
`NNc1ccn(C2OC(CO)C(O)C2O)c(=O)n1` (centres undefined) is listed with Ba CapD inh: 0.07; AID504770: -1.4
`CC1CCc2c(oc3c2cc(NS(=O)(=O)c2ccc(Cl)cc2)c2ccccc23)C1` (centres undefined) is listed with Ba CapD inh: -0.295; AID504770: x
